Screening data: PubChem BioAssay, several laboratories
Mtb H37Rv: M. tuberculosis H37Rv growth inhibitors, H37Rv strain (AID 1626); M. tuberculosis H37Rv growth inhibition; higher % means a stronger effect; 220,000 compounds, 0.95% hits; one-dose inhibition, % at 10 µM; IC50 in µM for titrated hits;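 active = confirmed in a dose series; inconclusive = inhibition above 80% but not taken into the dose series; inactive = below 80% or under 30% at every dose of the series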;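 note: bacteria incubated seven days before Alamar blue readout; 0% = bacteria only wells and 100% = bacteria with antibiotic wells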
RecA splice inh: blocks M. tuberculosis RecA intein splicing; P9WHJ3; cell-free RecA intein splicing, fluorescence; inhibition, %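 (about 9 µM by stock and volumes)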; 290,000 compounds, 0.75% hits; AID 2221; in the data active = inhibition above about 30%; inconclusive = no clear call, values can overlap the other calls;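 note: 0% = vehicle wells and 100% = reference inhibitor control wells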
Target sequence (P9WHJ3 whole entry, looked up, canonical isoform): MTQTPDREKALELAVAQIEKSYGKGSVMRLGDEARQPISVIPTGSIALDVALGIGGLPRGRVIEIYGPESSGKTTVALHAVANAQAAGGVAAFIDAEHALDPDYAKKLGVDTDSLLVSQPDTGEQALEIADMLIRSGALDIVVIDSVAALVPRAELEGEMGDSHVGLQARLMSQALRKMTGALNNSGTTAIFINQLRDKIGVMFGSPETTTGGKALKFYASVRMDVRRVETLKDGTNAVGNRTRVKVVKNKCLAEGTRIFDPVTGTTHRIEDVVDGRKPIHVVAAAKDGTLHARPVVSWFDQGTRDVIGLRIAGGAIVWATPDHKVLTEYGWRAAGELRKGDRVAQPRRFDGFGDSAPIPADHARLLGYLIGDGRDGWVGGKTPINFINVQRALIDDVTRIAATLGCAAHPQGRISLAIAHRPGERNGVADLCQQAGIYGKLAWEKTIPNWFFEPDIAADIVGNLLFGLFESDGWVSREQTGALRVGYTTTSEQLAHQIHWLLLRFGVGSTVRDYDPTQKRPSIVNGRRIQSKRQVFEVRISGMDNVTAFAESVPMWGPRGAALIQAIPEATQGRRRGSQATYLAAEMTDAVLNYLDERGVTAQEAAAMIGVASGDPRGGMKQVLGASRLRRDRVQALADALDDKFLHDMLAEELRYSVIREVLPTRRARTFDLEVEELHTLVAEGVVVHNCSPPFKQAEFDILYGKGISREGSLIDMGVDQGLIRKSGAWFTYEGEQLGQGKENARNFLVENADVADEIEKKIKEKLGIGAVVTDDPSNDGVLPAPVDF
YopH PTP inh: inhibitors of Yersinia enterocolitica YopH tyrosine phosphatase. fluorescence Ex485/Em525. inhibition, %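 (about 10 µM by stock and volumes)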. 140,000 compounds, 0.16% hits;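 active = inhibition of 50% or more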;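 note: controls were vehicle for no effect and minimum signal wells for full effect; inactives centre near -20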
Mtb bLac sens: beta-lactam sensitization of Mtb H37Rv | inhibition, % at 25 µM | M. tuberculosis H37Rv growth with meropenem, percent inhibition; hits of this screen are not shown here | 330,000 compounds, 0.27% hits | AID 434955;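 active = about 74% or more and at least 40 points above the plate without the antibiotic, then above 30% in a dose series; inconclusive = first-round hits that could not be retested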;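 note: growth measured after seven days incubation then overnight dye step; 0% = bacteria only wells and 100% = bacteria with antibiotic; twin plates without the antibiotic show which effects depend on it; some results filed as inactive read as strong as hits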
Arbovirus anti: arbovirus infection inhibition | arbovirus infection cell-based antiviral screen | inhibition, % at 10 µM | 200,000 compounds, 0.37% hits;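 active = inhibition from about 30%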;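 note: bluetongue infection of BSR cells; cell survival read as ATP light after 72 h; 0% = infected wells without compound and 100% = uninfected wells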
Arbovirus anti repeat: further read-out of Arbovirus anti, marked with its call; inhibition, %; measured here: 10K subset replicate screen; many hits read low in the repeat;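 first of two repeat runs on a subset; 0% = infected and 100% = uninfected wells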
* marks the source's active call; other numbers are inactive results; ? = inconclusive; / = no result given.

SMILES | Mtb H37Rv | RecA splice inh | YopH PTP inh | Mtb bLac sens | Arbovirus anti | others
COc1ccc2c(C)cc3nncn3c2c1 | -4% | 1.2 | / | -1 | 5
O=C(CN1C(=O)CSc2ccc(S(=O)(=O)N3CCOCC3)cc21)NCCCN1CCOCC1 | -2% | 3.9 | / | 4 | 11
O=C(Nc1cccnc1)c1sc(Nc2ccccc2)nc1-c1ccccc1 | 14% | 0.9 | -35 | 4 | 1
Cc1ccc(C)c(N2CCN(S(=O)(=O)c3cccc4cccnc34)CC2)c1 | 4% | -1.0 | / | -4 | -3
O=C(CSc1nncs1)NC(=O)NC1CCCC1 | 2% | -1.7 | / | 2 | 10
O=C(Nc1ccccc1)OCc1cn(-c2ccc(Cl)cc2)nn1 | -1% | 2.5 | -51 | 8 | 0
O=C(c1ccccc1)N1CCN(c2ccc([N+](=O)[O-])c(NCc3ccco3)c2)CC1 | 15% | 15 | -47 | 63 | 6
Cc1nc(C(=O)N2CCCC(C(=O)c3cccc(OC(C)C)c3)C2)cs1 (stereo not drawn) | / | 0.0 | / | -3 | /
COc1ccc(N(C(=O)c2cccnc2)S(=O)(=O)c2ccc3c(c2)n(C)c(=O)n3C)cc1 | -8% | -1.9 | -27 | -3 | -6
C#CCCCCCCCCC(=O)NCCCC | 73% | 2.5 | / | 81 | -21
COc1cccc(NC(=O)c2nn(C)c3c2CS(=O)(=O)c2ccccc2-3)c1 | / | -4.0 | / | -1 | /
CCCS(=O)(=O)N1CCC(C(=O)N2CCC3(CC2)OCCO3)CC1 | 2% | -4.1 | 4 | -5 | 1

4 records picked at random from the list so far, as already listed:
SMILES | Mtb H37Rv | RecA splice inh | YopH PTP inh | Mtb bLac sens | Arbovirus anti | others
CCCS(=O)(=O)N1CCC(C(=O)N2CCC3(CC2)OCCO3)CC1 | 2% | -4.1 | 4 | -5 | 1
COc1ccc(N(C(=O)c2cccnc2)S(=O)(=O)c2ccc3c(c2)n(C)c(=O)n3C)cc1 | -8% | -1.9 | -27 | -3 | -6
O=C(Nc1ccccc1)OCc1cn(-c2ccc(Cl)cc2)nn1 | -1% | 2.5 | -51 | 8 | 0
COc1cccc(NC(=O)c2nn(C)c3c2CS(=O)(=O)c2ccccc2-3)c1 | / | -4.0 | / | -1 | /

The list goes on.
SMILES | Mtb H37Rv | RecA splice inh | YopH PTP inh | Mtb bLac sens | Arbovirus anti | others
CCCC1=C(C(=O)OCC)C(c2ccc(F)cc2)n2ncnc2N1 (stereo not drawn) | 0% | 2.5 | -29 | -2 | 9
O=C(c1ccc2ncsc2c1)N1CCN(c2ccccc2Cl)CC1 | 10% | 6.7 | / | -2 | 2
Cc1cc(C)c2[nH]c(=O)c(CN(CC3CCCO3)S(=O)(=O)c3ccc4c(c3)OCCO4)cc2c1 (stereo not drawn) | -6% | 3.6 | -14 | -14 | -4
CN(C)c1ccc(N=Nc2ccccc2C(=O)OCC(=O)N(C)c2ccccc2)cc1 | 3% | 2.2 | -16 | 0 | 14
COc1ccc(-c2cc(C(F)(F)F)n3nc(C(=O)N4CCN5CCCC5C4)cc3n2)cc1OC (stereo not drawn) | / | -4.7 | / | -4 | /
CC(=O)c1ccc(N2CCN(CC(=O)N(CC(C)C)c3c(N)n(CC(C)C)c(=O)[nH]c3=O)CC2)cc1 | -14% | -1.8 | / | 10 | 4
Cc1ccccc1NC(=O)NC1(C(=O)N2CCOCC2)CCCCC1 | 0% | 0.6 | / | 0 | 8
Cc1[nH]c2ccccc2c1/C=N/NC(=S)NC(C)C | -2% | -1.5 | / | -2 | -15
Cc1ccc(S(=O)(=O)N2CCOCC2)cc1NC(=O)COC(=O)c1cc(=O)[nH]c2ccccc12 | 1% | -1.1 | / | -9 | 12
Cc1ccc(Cl)cc1NC(=O)CN1CCN(C(=O)C2CCCO2)CC1 (stereo not drawn) | / | -0.9 | / | -10 | /
O=C(NCCCn1ccnc1)C1CC(c2cccc(Br)c2)=NO1 (stereo not drawn) | -6% | 2.7 | -7 | -5 | -5
N#CC(C(=O)Nc1ccccc1)=C1CCCCC1 | 2% | 11 | -20 | 4 | 0 | Arbovirus anti repeat=10
CSc1sc(C(=O)NN)c2c1C(O)CCC2 (stereo not drawn) | -6% | -2.4 | / | 6 | /
O=C(CCC(F)(F)F)N1CCCC(CO)(CCc2ccccc2)C1 (stereo not drawn) | / | -1.4 | / | -2 | /
Nc1nnc(/C=C/c2ccccc2)s1 | -6% | 6.8 | / | -5 | -7
O=C(CSc1nc(=O)n(CCCN2CCOCC2)c2c1CCCC2)Nc1ccc(Cl)cc1 | / | 2.1 | / | 8 | /
c1ccc(-c2csc(N3CCOCC3)n2)cc1 | -6% | 0.6 | 7 | 4 | 2
O=C1CN(C(=O)COC(=O)C2CC(=O)N(Cc3ccco3)C2)c2ccccc2N1 (stereo not drawn) | -5% | 0.7 | -11 | -11 | 4 | Arbovirus anti repeat=6
CCOC(=O)C1CCCN(S(=O)(=O)CCNC(=O)c2ccccc2)C1 (stereo not drawn) | / | -0.3 | / | 0 | /
Clc1ccc(OCCN2CCCCC2)cc1Cl | 6% | 0.3 | 9 | 3 | -15
CC(=O)Nc1cccc(OCCCNC(=O)C2CCC2)c1 | -1% | / | / | 6 | /
COc1ccc(/C=C/C(=O)OCC(=O)NCc2ccco2)c(OC)c1 | -9% | -0.3 | / | 6 | 18
c1ccc(C(c2ccccc2)c2ccn[nH]2)cc1 | / | 7.3 | / | 2 | /
CCCCN(Cc1cc2cc(OC)ccc2[nH]c1=O)S(=O)(=O)c1ccc(C)cc1 | / | 1.7 | / | ? | /
CC(NS(=O)(=O)c1ccc2c(c1)c(=O)n(C)c(=O)n2C)C(=O)NC1CCCCC1 (stereo not drawn) | / | -0.5 | / | -1 | /
COCCn1c(COc2cccc(OC)c2)nnc1SCC(=O)NC1CCCCC1 | / | 0.6 | / | 4 | /
COc1ccc2c(c1OC)C(=O)OC2N1C(=O)CC[C@H]1C(=O)Nc1ccc2c(c1)OCO2 (stereo partly drawn) | / | 11 | / | -3 | /
O=C(O)c1nonc1-c1nonc1C(=O)O | -7% | / | -2 | 8 | -3
COc1ccccc1CCNC(=O)C(=O)NCC1OCCN1S(=O)(=O)c1ccc([N+](=O)[O-])cc1 (stereo not drawn) | / | 2.1 | / | -1 | /
Cc1ccccc1NC(=O)CC(C)S(=O)(=O)c1ccc2c(c1)NC(=O)CO2 (stereo not drawn) | / | 1.7 | / | 5 | /
NC(=O)c1ccccc1-c1nc(-c2ccccc2)no1 | -8% | 1.7 | -33 | -7 | -5
CCCc1ccc(OCc2ccccc2)c2c(=O)cc(C(=O)OCC)oc12 | 66% | -24 | / | 92 | /
CCOC(=O)c1c(NC(=O)CCCC(=O)O)sc2c1CCC2 | -3% | -1.3 | / | -4 | 5
Cc1coc2c(C)c3oc(=O)c(CC(=O)N[C@@H](CC(C)C)C(=O)O)c(C)c3cc12 | / | 1.6 | / | 1 | /
O=C(CSc1nccn1Cc1ccc(F)cc1)NC1CCCC1 | / | -0.8 | / | -12 | /
O=C(c1ccc(Cl)cc1)C1CCN(C(=O)c2ccc(F)cc2)CC1 | / | 0.4 | / | 2 | /

Already shown: 4 of the compounds above.
SMILES | Mtb H37Rv | RecA splice inh | YopH PTP inh | Mtb bLac sens | Arbovirus anti | others
CC(NS(=O)(=O)c1ccc2c(c1)c(=O)n(C)c(=O)n2C)C(=O)NC1CCCCC1 (stereo not drawn) | / | -0.5 | / | -1 | /
COCCn1c(COc2cccc(OC)c2)nnc1SCC(=O)NC1CCCCC1 | / | 0.6 | / | 4 | /
COc1ccc2c(c1OC)C(=O)OC2N1C(=O)CC[C@H]1C(=O)Nc1ccc2c(c1)OCO2 (stereo partly drawn) | / | 11 | / | -3 | /
O=C(O)c1nonc1-c1nonc1C(=O)O | -7% | / | -2 | 8 | -3

(more compounds)
SMILES | Mtb H37Rv | RecA splice inh | YopH PTP inh | Mtb bLac sens | Arbovirus anti | others
CS(=O)(=O)c1cnc(-c2ccccc2)nc1Sc1ccc(F)cc1 | / | 1.3 | / | 3 | /
CCN(C(=O)c1ccc(NC(=O)Cc2ccccc2)cc1)c1ccccc1 | / | 2.6 | / | 0 | /
O=S(=O)(c1ccc2ccccc2c1)N1CCNCC1 | / | 0.6 | / | -3 | /
Cc1ccc(CC2CC(=O)N(c3cc(C)ccc3C)C2=O)cc1 (stereo not drawn) | / | 1.9 | / | 1 | /
O=C(Nc1ccc(F)c(F)c1)c1ccc(F)c(S(=O)(=O)N2CCOCC2)c1 | / | 1.1 | -30 | -1 | 7
COc1ccc(OC)c2sc(NNC(=O)COc3ccccc3)nc12 | 32% | -5.2 | / | -2 | 27
Cc1cc2oc(=O)cc(CSc3nnc(C)n3N)c2cc1C(C)C | -15% | -6.7 | -14 | 1 | 0
CCOC(=O)Cc1csc(NC(=O)c2cccnc2)n1 | -2% | -0.2 | -12 | / | 10
COc1ccc(OC)c(S(=O)(=O)N2CCC(C(=O)NC3CCCC3)CC2)c1 | / | -4.6 | / | -5 | /
CCOc1ccc2ncc(S(=O)(=O)c3ccc(C)cc3)c(N3CCC4(CC3)OCCO4)c2c1 | 28µM* | 9.5 | -11 | 94 | -12
C(=N\N1CCOCC1)/c1cccs1 | -4% | -1.3 | -38 | 7 | 4
O=C(COc1ccc(Cl)cc1)Nc1ccc2c(c1)OCO2 | / | 0.0 | / | 74 | /
Cc1cc(C)cc(N(C(=O)CNC(=O)c2ccco2)C(C(=O)NC2CCCC2)c2ccncc2)c1 (stereo not drawn) | / | 3.2 | / | -1 | /
CSc1ccc(S(=O)(=O)N2CCC(C(=O)NCc3cccnc3)CC2)cc1 | / | 0.4 | / | 1 | /
COc1ccccc1N1CCN(C(=O)C(CC(C)C)NC(=O)C2CCCCC2)CC1 (stereo not drawn) | / | 1.9 | / | 1 | /
O=C(c1cc(COc2ccc(F)cc2Cl)on1)N1CCC(c2ccncc2)CC1 | -2% | 5.5 | / | 67 | -7
COC(=O)Cc1ccc(NC(=S)N2CCN(c3ccccn3)CC2)cc1 | / | 2.8 | / | 1 | /
O=C(Cc1csc(NC(=O)Nc2ccc(Cl)cc2)n1)NCc1ccccn1 | / | -1.1 | / | 13 | /
O=C(NCc1ccc(Cl)cc1)c1cc2c(s1)CS(=O)(=O)C2 | / | -0.2 | / | 3 | /
O=S(=O)(c1ccc(-c2csc(Nc3ccc(Br)cc3)n2)cc1)N1CCCC1 | 3% | 0.3 | -27 | 0 | -14
COc1ccc(/C=C/C(=O)Oc2ccc(C=O)cc2OC)cc1 | / | 0.5 | / | 21 | /
CC(C)Sc1nc2sc(-c3ccccc3)cc2c(=O)n1N | 2% | / | -26 | -2 | 11
O=C1CSC(c2c(F)cccc2Cl)N1c1cccc(F)c1 (stereo not drawn) | 0% | 4.2 | -39 | 7 | 3
COc1cc2[nH]c(=S)nc(NCCCOC(C)C)c2cc1OC | 5% | 0.9 | 4 | 4 | 2
Cc1ccc(COC(=O)c2ccc3c(c2)C(=O)N(CCCN2CCOCC2)C3=O)cc1 | 7% | -0.9 | / | 1 | 1
CCCc1cc(=O)[nH]c2nnc(SCC(=O)Nc3cc(C)on3)n12 | / | -1.3 | / | -7 | /
CCOC(=O)NC(=O)/C(C#N)=N\Nc1cccc(Cl)c1 | / | -1.0 | / | -4 | /
CCOc1cc(/C=N\O)cc(Cl)c1OCC | -8% | -4.6 | -9 | 5 | 0
NC(=O)c1cc(S(=O)(=O)Nc2cccc(Cl)c2)cs1 | / | -0.4 | / | 4 | /
CCOC(=O)CN1C(=O)COc2ccc(Cl)cc21 | -8% | 1.6 | -34 | -6 | 0
CCSC(=S)Nc1c(C)n(C)n(-c2ccccc2)c1=O | -4% | -1.7 | / | 1 | 1
COc1cccc(-c2csc(N3CCN(S(=O)(=O)c4ccc(F)cc4)CC3)n2)c1 | 6% | 0.8 | -23 | -4 | 8
CCOC(=O)c1nn(-c2cccc(Cl)c2)c2nc(CC(C)C)c(C#N)c(=O)n12 | 11% | -1.0 | 9 | -17 | 30
N#Cc1ccc(Oc2cnccn2)cc1 | / | -4.4 | / | -8 | /
O=C1C(NS(=O)(=O)c2cccs2)=C(N2CCN(c3ccccc3)CC2)C(=O)c2ccccc21 | 7% | 13 | -10 | -5 | 4
COCc1cc(C)nc2sc(C(=O)N3CCN(c4ccccc4)CC3)c(N)c12 | 10% | -5.8 | -21 | -1 | 6 | Arbovirus anti repeat=8
COc1ccccc1-n1c(O)c(/C=N/NC(=S)Nc2ccccc2)c(=O)[nH]c1=S | 5% | -4.7 | / | 4 | /

Some of the compounds tested, so the mix of outcomes need not match the whole.
